Screening results from PubChem BioAssay.
Ran importin = inhibitors of Ran–importin-beta complex formation, primary screen, biochemical, CFP-Ran/YFP-importin-beta FRET, RCC1, cell-free (AID 434961); Regulator of chromosome condensation (Homo sapiens) + GTP-binding nuclear protein Ran …; CFP-Ran/YFP-importin-beta FRET, cell-free; stronger effect = higher value; inhibition, %; hit rate 0.2% among 7,700;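 active means more than half of the replicate wells above 15% inhibition; inconclusive means exactly half above it; inactive means fewer than half above it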;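 further: 0% = DMSO wells and 100% inhibition = RanGDP control wells on each plate; stock of unstated strength diluted about 400-fold; mean of two wells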
Active calls of the source: *; ? = inconclusive.

SMILES	Ran importin
C[C@@H]1CN([C@H](C)CO)C(=O)c2cccc(NS(=O)(=O)c3cn(C)cn3)c2O[C@@H]1CN(C)Cc1ccc(Cl)c(Cl)c1	1.7
Cc1noc(C)c1NC(=O)Nc1ccc2c(c1)C(=O)N([C@H](C)CO)C[C@H](C)[C@@H](CN(C)Cc1ccccc1)O2	-3.0
CC(C)NC(=O)N(C)C[C@@H]1Oc2ccc(NC(=O)CCCN(C)C)cc2C(=O)N([C@@H](C)CO)C[C@H]1C	1.6
C[C@H](CO)N1C[C@H](C)[C@@H](CN(C)C)Oc2c(NC(=O)c3ccncc3)cccc2C1=O	0.2
C[C@@H]1CN([C@@H](C)CO)C(=O)c2cccc(NS(=O)(=O)c3cccs3)c2O[C@H]1CN(C)Cc1ccc(-c2ccccc2)cc1	5.6
C[C@H]1CN([C@@H](C)CO)C(=O)c2cc(N(C)C)ccc2O[C@H]1CN(C)C	-3.8
Cc1noc(C)c1NC(=O)N(C)C[C@H]1Oc2c(NS(=O)(=O)c3cn(C)cn3)cccc2C(=O)N([C@@H](C)CO)C[C@@H]1C	-1.1
C[C@H](CO)N1C[C@H](C)[C@@H](CN(C)S(=O)(=O)c2cn(C)cn2)Oc2ccc(NC(=O)Cc3ccccc3)cc2CC1=O	6.2
COc1ccc(S(=O)(=O)Nc2cccc3c2O[C@H](CN(C)C)[C@H](C)CN([C@H](C)CO)C3=O)cc1	-2.8
Cc1noc(C)c1NC(=O)Nc1cccc2c1O[C@@H](CN(C)S(=O)(=O)c1ccc(Cl)cc1)[C@@H](C)CN([C@@H](C)CO)C2=O	?
C[C@H](CO)N1C[C@H](C)[C@H](CN(C)Cc2ccccc2)Oc2ccc(NS(=O)(=O)c3cccs3)cc2CC1=O	0.1
Cc1noc(C)c1NC(=O)Nc1cccc2c1O[C@@H](CN(C)Cc1ccc(Cl)c(Cl)c1)[C@@H](C)CN([C@H](C)CO)C2=O	0.4
C[C@@H]1CN([C@H](C)CO)C(=O)c2cccc(NS(C)(=O)=O)c2O[C@@H]1CN(C)S(=O)(=O)c1cccs1	4.0
CC(C)NC(=O)N(C)C[C@H]1OCCCC[C@@H](C)Oc2ccc(NC(=O)CCCN(C)C)cc2C(=O)N([C@H](C)CO)C[C@@H]1C	2.1
C[C@@H]1CCCCO[C@H](CN(C)C(=O)c2ccncc2)[C@H](C)CN([C@H](C)CO)C(=O)c2cc(NS(C)(=O)=O)ccc2O1	-2.9
COc1ccccc1S(=O)(=O)N(C)C[C@@H]1OCc2cn(nn2)CCCC(=O)N([C@@H](C)CO)C[C@@H]1C	4.1
C[C@H]1CN([C@@H](C)CO)C(=O)Cc2cc(NC(=O)Nc3ccccc3)ccc2O[C@@H]1CN(C)CC1CC1	-0.4
C[C@H](CO)N1C[C@H](C)[C@H](CN(C)CC2CC2)Oc2c(NC(=O)Nc3ccc(C(F)(F)F)cc3)cccc2C1=O	-9.0
C[C@H](CO)N1C[C@H](C)[C@@H](CN(C)C(=O)NC2CCCCC2)Oc2ccc(NC(=O)Nc3ccccc3)cc2C1=O	-2.3
C[C@@H]1CN([C@H](C)CO)C(=O)c2cccc(NS(=O)(=O)c3cn(C)cn3)c2O[C@H]1CN(C)Cc1ccc(Oc2ccccc2)cc1	0.3
COc1ccc(S(=O)(=O)Nc2ccc3c(c2)CC(=O)N([C@H](C)CO)C[C@H](C)[C@@H](CN(C)CC2CC2)O3)cc1	5.2
C[C@H](CO)N1C[C@H](C)[C@@H](CN(C)CC2CC2)Oc2c(NS(=O)(=O)c3ccc(Cl)cc3)cccc2C1=O	-0.4
C[C@@H]1CCCCO[C@H](CN(C)C(=O)c2ccncc2)[C@H](C)CN([C@@H](C)CO)C(=O)c2cc(NC(=O)CCC(F)(F)F)ccc2O1	6.5
CC(C)NC(=O)Nc1ccc2c(c1)C(=O)N([C@H](C)CO)C[C@@H](C)[C@H](CN(C)S(=O)(=O)c1ccccc1)OCCCC[C@H](C)O2	-0.4
C[C@@H]1CCCCO[C@H](CN(C)C(=O)CCC(F)(F)F)[C@@H](C)CN([C@@H](C)CO)C(=O)c2cc(NS(C)(=O)=O)ccc2O1	3.0
C[C@@H]1CN([C@H](C)CO)C(=O)c2cccc(NC(=O)c3cnccn3)c2O[C@H]1CN(C)Cc1ccc(C(F)(F)F)cc1	5.5
C[C@@H]1CN([C@H](C)CO)C(=O)c2cccc(NC(=O)c3nc4ccccc4s3)c2O[C@H]1CN(C)CC1CC1	0.9
C[C@H]1CN([C@@H](C)CO)C(=O)c2cc(NC(=O)Nc3ccc4c(c3)OCO4)ccc2O[C@@H]1CN(C)C(=O)Nc1ccc(C(F)(F)F)cc1	1.3
CNC[C@@H]1Oc2ccc(NS(C)(=O)=O)cc2CC(=O)N([C@@H](C)CO)C[C@H]1C	-2.9
Cc1noc(C)c1S(=O)(=O)N(C)C[C@H]1Oc2ccc(NS(=O)(=O)c3cn(C)cn3)cc2CC(=O)N([C@H](C)CO)C[C@@H]1C	2.0
C[C@H](CO)N1C[C@H](C)[C@H](CN(C)C(=O)Nc2ccc(F)cc2)Oc2c(NC(=O)Nc3cccc4ccccc34)cccc2C1=O	-5.1
COc1ccc(CN(C)C[C@H]2Oc3ccc(NC(=O)Nc4ccc(OC)cc4)cc3C(=O)N([C@H](C)CO)C[C@@H]2C)cc1	5.3
COc1ccc(S(=O)(=O)N(C)C[C@H]2Oc3ccc(NC(=O)Cn4cnnn4)cc3C(=O)N([C@@H](C)CO)C[C@@H]2C)cc1	-3.2
Cc1noc(C)c1NC(=O)N(C)C[C@H]1Oc2ccc(NC(=O)CCN3CCOCC3)cc2CC(=O)N([C@@H](C)CO)C[C@H]1C	?
C[C@@H]1CCCCO[C@@H](CN(C)C(=O)C2CCCCC2)[C@@H](C)CN([C@@H](C)CO)C(=O)c2cc(NS(=O)(=O)c3ccccc3)ccc2O1	-6.3
C[C@@H]1CN([C@@H](C)CO)C(=O)c2cc(NC(=O)CCCN(C)C)ccc2O[C@H]1CN(C)Cc1ccncc1	7.8
C[C@@H]1CN([C@H](C)CO)C(=O)CCCn2nncc2CO[C@H]1CN(C)S(=O)(=O)c1ccc2ccccc2c1	-3.4
C[C@H](CO)N1C[C@H](C)[C@H](CN(C)S(=O)(=O)c2cn(C)cn2)Oc2ccc(N(C)C)cc2CC1=O	-2.2
Cc1noc(C)c1NC(=O)N(C)C[C@H]1Oc2ccc(NC(=O)C3CC3)cc2C(=O)N([C@@H](C)CO)C[C@H]1C	6.5
C[C@H](CO)N1C[C@H](C)[C@@H](CN(C)Cc2ccc(C(F)(F)F)cc2)Oc2c(NS(C)(=O)=O)cccc2C1=O	9.7
C[C@@H]1CCCCO[C@H](CN(C)C)[C@H](C)CN([C@H](C)CO)C(=O)c2cc(NC(=O)Nc3cccc4ccccc34)ccc2O1	0.4
C[C@H](CO)N1C[C@H](C)[C@@H](CN(C)C(=O)C2CCCCC2)OCCCC[C@H](C)Oc2ccc(NC(=O)c3ccncc3)cc2C1=O	3.4
Cc1noc(C)c1NC(=O)N(C)C[C@H]1Oc2c(cccc2N(C)C)C(=O)N([C@@H](C)CO)C[C@@H]1C	-2.6
CNC[C@@H]1Oc2ccc(NS(C)(=O)=O)cc2CC(=O)N([C@@H](C)CO)C[C@@H]1C	3.2
COc1ccccc1NC(=O)N(C)C[C@H]1OCc2cnnn2CCCC(=O)N([C@H](C)CO)C[C@H]1C	-1.0
C[C@@H]1CN([C@H](C)CO)C(=O)Cc2cc(N(C)C)ccc2O[C@@H]1CN(C)C(=O)Nc1ccc2c(c1)OCO2	-0.4
CNC[C@@H]1Oc2c(NC(=O)c3cc(C)nn3C)cccc2C(=O)N([C@H](C)CO)C[C@H]1C	-1.7
C[C@H](CO)N1C[C@H](C)[C@H](CN(C)Cc2ccccc2)OCCCC[C@H](C)Oc2ccc(NS(C)(=O)=O)cc2C1=O	-1.5
CNC[C@H]1Oc2ccc(NC(=O)Nc3ccc(OC)cc3)cc2C(=O)N([C@H](C)CO)C[C@@H]1C	5.3
COc1ccc(CN(C)C[C@@H]2Oc3c(NS(C)(=O)=O)cccc3C(=O)N([C@H](C)CO)C[C@H]2C)cc1	-1.5
C[C@@H]1CN([C@H](C)CO)C(=O)c2cc(NC(=O)Cn3cnnn3)ccc2O[C@@H]1CN(C)CC1CC1	0.5
C[C@H]1CCCCO[C@H](CN(C)Cc2ccc3c(c2)OCO3)[C@@H](C)CN([C@@H](C)CO)C(=O)c2cc(NC(=O)CCCN(C)C)ccc2O1	-3.9
COc1ccc(S(=O)(=O)N(C)C[C@H]2Oc3c(NS(C)(=O)=O)cccc3C(=O)N([C@@H](C)CO)C[C@@H]2C)cc1	0.6
C[C@@H]1CN([C@H](C)CO)C(=O)c2cccc(NS(C)(=O)=O)c2O[C@H]1CN(C)S(=O)(=O)c1ccc(Cl)cc1	?
C[C@H]1CN([C@@H](C)CO)C(=O)c2cccc(N(C)C)c2O[C@@H]1CN(C)S(=O)(=O)c1ccc(Cl)cc1	1.6
C[C@H](CO)N1C[C@H](C)[C@H](CN(C)C)Oc2ccc(NC(=O)Nc3ccc4c(c3)OCO4)cc2CC1=O	1.4
C[C@@H]1CCCCO[C@@H](CN(C)C(=O)Nc2ccccc2)[C@H](C)CN([C@@H](C)CO)C(=O)c2cc(NC(=O)CCCN(C)C)ccc2O1	-4.0
C[C@H](CO)N1C[C@H](C)[C@@H](CN(C)C(=O)Nc2ccccc2)Oc2c(NC(=O)c3nc4ccccc4s3)cccc2C1=O	-2.0
C[C@@H]1CN([C@@H](C)CO)C(=O)Cc2cc(NC(=O)C3CC3)ccc2O[C@H]1CN(C)Cc1ccc(C(F)(F)F)cc1	0.1
C[C@H]1CN([C@@H](C)CO)C(=O)Cc2cc(NS(C)(=O)=O)ccc2O[C@H]1CN(C)Cc1ccc(-c2ccccc2)cc1	0.8

An excerpt from above in order of number of heavy atoms, largest number first.
SMILES	Ran importin
C[C@@H]1CCCCO[C@@H](CN(C)C(=O)Nc2ccccc2)[C@H](C)CN([C@@H](C)CO)C(=O)c2cc(NC(=O)CCCN(C)C)ccc2O1	-4.0
COc1ccc(S(=O)(=O)N(C)C[C@H]2Oc3c(NS(C)(=O)=O)cccc3C(=O)N([C@@H](C)CO)C[C@@H]2C)cc1	0.6
C[C@@H]1CN([C@H](C)CO)C(=O)c2cc(NC(=O)Cn3cnnn3)ccc2O[C@@H]1CN(C)CC1CC1	0.5

(list continues)
SMILES	Ran importin
C[C@@H]1CN([C@H](C)CO)C(=O)c2cccc(NC(=O)Nc3cccc4ccccc34)c2O[C@@H]1CN(C)S(=O)(=O)c1cn(C)cn1	-3.2
Cc1noc(C)c1NC(=O)N(C)C[C@H]1Oc2ccc(NS(=O)(=O)c3cccs3)cc2C(=O)N([C@H](C)CO)C[C@H]1C	5.2
COc1ccc(S(=O)(=O)N(C)C[C@@H]2Oc3ccc(NC(=O)Nc4c(C)noc4C)cc3C(=O)N([C@@H](C)CO)C[C@H]2C)cc1	-4.5
CNC[C@H]1OCCCC[C@H](C)Oc2ccc(NC(=O)C3CCCCC3)cc2C(=O)N([C@H](C)CO)C[C@@H]1C	0.8
C[C@H]1CN([C@@H](C)CO)C(=O)c2cccc(NC(=O)C3CCOCC3)c2O[C@H]1CN(C)Cc1ccc(C(=O)O)cc1	-2.2
COc1ccc(NC(=O)Nc2ccc3c(c2)C(=O)N([C@H](C)CO)C[C@@H](C)[C@H](CN(C)C)O3)cc1	0.4
COc1ccc(CN(C)C[C@H]2Oc3ccc(NC(=O)Cc4ccccc4)cc3CC(=O)N([C@@H](C)CO)C[C@H]2C)cc1	-0.8
CNC[C@@H]1Oc2ccc(NC(=O)C3CC3)cc2C(=O)N([C@H](C)CO)C[C@@H]1C	?
COc1ccc(CN(C)C[C@H]2Oc3ccc(NC(=O)Cc4ccccc4)cc3C(=O)N([C@H](C)CO)C[C@@H]2C)cc1	-3.5
C[C@@H]1CCCCO[C@H](CN(C)C(=O)c2ccccc2)[C@@H](C)CN([C@@H](C)CO)C(=O)c2cc(NS(=O)(=O)c3cn(C)cn3)ccc2O1	2.3
COc1ccc(S(=O)(=O)N(C)C[C@H]2Oc3c(NS(=O)(=O)c4cccs4)cccc3C(=O)N([C@@H](C)CO)C[C@H]2C)cc1	-2.5
C[C@H]1CN([C@@H](C)CO)C(=O)CCCn2cc(nn2)CO[C@H]1CN(C)C(=O)Nc1ccc(C(C)(C)C)cc1	2.3
C[C@H](CO)N1C[C@H](C)[C@H](CN(C)S(=O)(=O)c2ccccc2)OCCCC[C@H](C)Oc2ccc(NC(=O)Cc3ccccc3)cc2C1=O	-4.1
C[C@H](CO)N1C[C@H](C)[C@H](CN(C)Cc2ccc(C(F)(F)F)cc2)Oc2ccc(NS(C)(=O)=O)cc2CC1=O	-0.5
COc1ccc(CN(C)C[C@@H]2Oc3ccc(NC(=O)Nc4ccc(C(F)(F)F)cc4)cc3CC(=O)N([C@@H](C)CO)C[C@@H]2C)cc1	-3.8
C[C@H]1CN([C@@H](C)CO)C(=O)c2cccc(NS(C)(=O)=O)c2O[C@H]1CN(C)CC1CC1	2.5
C[C@@H]1CN([C@H](C)CO)C(=O)CCCn2cc(nn2)CO[C@H]1CN(C)C(=O)c1ccc2ccn(C)c2c1	0.7

Given field by field: entries from further up.
> C[C@H](CO)N1C[C@H](C)[C@H](CN(C)S(=O)(=O)c2ccccc2)OCCCC[C@H](C)Oc2ccc(NC(=O)Cc3ccccc3)cc2C1=O
  Ran importin = -4.1
> C[C@H](CO)N1C[C@H](C)[C@H](CN(C)Cc2ccc(C(F)(F)F)cc2)Oc2ccc(NS(C)(=O)=O)cc2CC1=O
  Ran importin = -0.5
> COc1ccc(CN(C)C[C@@H]2Oc3ccc(NC(=O)Nc4ccc(C(F)(F)F)cc4)cc3CC(=O)N([C@@H](C)CO)C[C@@H]2C)cc1
  Ran importin = -3.8

Only part of the results is shown, so the mix of outcomes need not match the whole.
